# MgrA DNA FP: alters Staphylococcus aureus MgrA binding to DNA. fluorescence polarization. inhibition, %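 (about 10 µg/mL by stock and volumes)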. hit rate 0.13% among 84,000. AID 602314;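 active = above 50% in either of two replicates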;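 also: 0% = protein plus DNA without compound and 100% = DNA alone without protein; higher means less MgrA bound to DNA so lower polarization; one replicate is shown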
# Sa helicase inh: S. aureus DNA helicase inhibition; hit rate 0.05% among 120,000; AID 485395; inhibition, %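 (tested at about 80 µM)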; purified S. aureus helicase, fluorescence unwinding assay; about half of the hits fall short of the stated cut;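 active = both duplicates at 50% or more, or one of them with a favoured structure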;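 also: 0% = mean of negative control wells and 100% = mean of positive control wells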
# * marks the source's active call; other numbers are inactive results; x = not tested or not shown. An excerpt (hit frequency here may not be typical).
canonical_smiles	MgrA DNA FP	Sa helicase inh
CCOC(=O)c1c(C)n(C)c2ccc(OCC(O)CNC3CCCCC3)cc12 (configuration not stated)	x	12
Cc1cc(CNC(=S)Nc2ccc(S(N)(=O)=O)cc2)nn1C	-0.2	-9
O=C(NC(=S)Nc1ccc(Br)c(Cl)c1)c1ccccc1	3.1	x
O=C(NC1CCCCC1)N1CCc2ccccc2C1	-0.3	3
CCOC(=O)c1sc(NC(=O)COc2ccc(Cl)cc2)nc1C	x	17
CC(=O)N1CCc2cc([N+](=O)[O-])ccc21	2.9	x
Cc1cc(C)nc(SCC(=O)Nc2ncc3c(n2)CCCC3=O)n1	-0.5	5
CCOC(=O)c1ncoc1-c1cccc(C(F)(F)F)c1	0.9	x
CC(C)CCNC(=O)c1nn(-c2ccccc2)c(=O)c2ccccc12	x	0
Cc1ccc(S(=O)(=O)N(CC(=O)Nc2cccnc2)c2cc(C)cc(C)c2)cc1	1.0	-7
O=[N+]([O-])c1ccc(NN=C2CCCCC2)c([N+](=O)[O-])c1	1.1	x
Cc1ccc(OCC(O)CNC(=O)c2ccccc2C(=O)O)cc1 (configuration not stated)	-3.0	-9
Cc1ccc(NC(=O)CSc2nnc(C)c3ccccc23)cc1	-3.5	x
CN(C(=O)COC(=O)Cn1cnc2ccccc2c1=O)c1ccccc1	x	18
COc1cc(/C=C2\Cc3ccccc3C2=O)ccc1O	-1.4	x
C=Cc1c(S(C)(=O)=O)sc(C(=O)OCC)c1C	-3.3	x
Cc1cc(Oc2ccc(N)cn2)ccc1Cl	0.2	x
CC(=O)Nc1nc2ccc3ccccc3c2s1	-0.1	8
Cc1cccc(NC(=O)Cn2cc(C(=O)C3CC3)c3ccccc32)c1	-1.4	15
COc1ccc(S(=O)(=O)n2cnc3cc(C)c(C)cc32)cc1OC	x	14
CCC(=Nc1ccccc1N)c1c(O)n(Cc2ccccc2)c(=O)[nH]c1=O	x	-20
COc1ccc2[nH]c3c(=O)n(CCC(=O)NC4CCCCCC4)c(=S)[nH]c3c2c1	5.2	13
Cc1c(Nc2ncccc2C(=O)O)cccc1C(F)(F)F	3.5	x
Cc1ccc(C(=NCc2ccccc2)NC#N)cc1	0.6	8
O=C(O)CSC1=NCCCN1	16	-8
COc1ccc(CCNC(=O)c2ccc3nc4ccc(Cl)cc4c(=O)n3c2)cc1OC	-1.6	1
COCCN(Cc1cc2ccc(C)c(C)c2nc1Cl)C(=O)N1CCOCC1	0.8	9
O=C(Cc1cc(F)cc(F)c1)Nc1ccc(F)cc1	-1.3	x
Cc1ccnc(S(=O)(=O)Cc2ccc(Cl)cc2)n1	-0.4	x
O=C(OCc1ccccc1F)C1CCCC1	-1.2	-12
CC(C)(C)c1ccc(Oc2ncccc2C(=O)O)cc1	-5.0	x
Cc1noc(/C=C/N(C)C)c1S(=O)(=O)N1CCCC(C(=O)N2CCc3ccccc32)C1 (configuration not stated)	x	30
CCOC(=O)c1cc2c(ccn2C)n1CC(=O)NC(c1ccccc1)c1ccccc1	-1.2	8
O=C(Nc1ccc(N2CCOCC2)c2nonc12)c1ccco1	2.0	-14
Cc1ccccc1Nc1nc(N)nc(CSc2nnc(Cc3ccccc3)o2)n1	x	-10
COc1ccc2c(c1)c(=O)oc1c(C)c(OCC(=O)O)ccc12	x	26
CCOC(=O)Nc1cc(Cl)ccc1Cl	-0.4	23
O=c1[nH]cc(N2CCN(Cc3ccccc3)CC2)c(=O)[nH]1	0.3	x
CN(C)/C=C1\SC(=O)N(c2ccccc2)C1=O	1.0	x
CN(C)C(=S)Nc1ccc2c(c1)OCCO2	x	-16
CCCCOc1ccc(C(=O)NCC(=O)NC2CC2)cc1	x	-7
O=C(c1ccc2c(c1)CCCC2)N1CCN(c2ccccc2)CC1	x	-12
COc1ccc(Br)c(C(=O)Nc2c(C)nc3nc[nH]n3c2=O)c1	x	-43
Cc1ccc(CNC(=O)CN(C)S(=O)(=O)c2cccs2)cc1	2.0	-2
Cc1cccc(NC(=S)NC(=O)/C=C/c2ccco2)c1	17	4
COc1ccc(/C(C)=N/O)cc1CN1CCOCC1	2.6	x
COc1cc(NC(=O)c2ccc3c(SCC(=O)O)c4c(nc3c2)CCCC4)cc(OC)c1OC	x	1
N#Cc1ccc(-n2c(-c3ccccc3)nnc2-c2ccccc2)cc1C#N	-4.2	-1
Cc1ccc(CSc2nnnn2-c2ccccc2)cc1	-2.0	7
O=C(N/N=C\c1ccco1)c1ccc(S(=O)(=O)N2CCCCCC2)cc1	x	20
COc1cccc(NC(=S)NNC(C)(C)C)c1	-0.5	x
c1ccc(CCCN2CCN(Cc3ccccc3)CC2)cc1	-1.1	6
O=C(Oc1ccccc1)c1ccco1	-1.0	17
CCOC(=O)C1CCN(C(=O)c2ccccc2SCCOC)CC1	1.9	-14
CC(C)CN(CC(C)C)C(=O)Cn1nc(C(=O)O)c2ccccc2c1=O	x	2
CCN(CC)c1ccc(C(=O)NN=C2C3CC4CC(C3)CC2C4)cc1	x	2
CC(SC1=NS(=O)(=O)c2ccccc21)C(=O)O (configuration not stated)	x	21
CC(C(=O)O)n1nc(-c2ccccc2)c2ccccc21 (configuration not stated)	x	19
c1ccc(CSc2ncccn2)cc1	6.3	-15
Cc1cc(C)n(CCC(=O)O)n1	-6.2	4

# Next section:
canonical_smiles	MgrA DNA FP	Sa helicase inh
NS(=O)(=O)c1ccc(CNC2=NCCCCC2)cc1	x	-10
O=C(O)Cn1c(P(=O)(O)c2ccccc2)nc2ccccc21	x	-2
CCOc1ccc2nc(SCc3cc(=O)oc4cc(O)ccc34)[nH]c2c1	x	4
CCOC(=O)CNc1ncc(C(F)(F)F)cc1Cl	-0.4	x
O=S(=O)(Cc1ccccc1)Nn1cnnc1	-0.6	12
COc1ccc2[nH]c3c(=O)n(CC(=O)N(C)Cc4ccccc4)c(=S)[nH]c3c2c1	-0.5	6
O=C(c1cc(=O)c2ccccc2o1)N1CCN(S(=O)(=O)/C=C/c2ccccc2)CC1	x	-16
O=C(O)COCC(=O)NC1CCN(Cc2ccccc2)CC1	0.3	x
CNC(=O)C(C)n1c(C)c2cnn(-c3ccccc3)c(=O)c2c1C (configuration not stated)	-1.6	-9
COc1cccc(-n2cc(C(=O)N3CCN(C(=O)c4ccco4)CC3)c3ccccc3c2=O)c1	x	-8
CCCCn1c(C2CC2)nc2cc(S(=O)(=O)N3CCOCC3)ccc21	x	-11
O=C(O)CCN1C(=O)Cc2ccccc2C1=O	x	-17
Cc1cc(C)n2nc(SCC(=O)NCCC3=CCCCC3)nc2n1	x	-9
C/C(N)=C(/C#N)C(=O)CSc1cc(Cl)ccc1Cl	x	-5
COc1cc(OC)c2nc(C)c3c(c2c1)CN(C(=O)Nc1ccccc1)C3	0.7	x

# Taken from above:
# Under Sa helicase inh, CCOc1ccc2nc(SCc3cc(=O)oc4cc(O)ccc34)[nH]c2c1 has the entry 4
# Under Sa helicase inh, C/C(N)=C(/C#N)C(=O)CSc1cc(Cl)ccc1Cl has the entry -5
# Under Sa helicase inh, NS(=O)(=O)c1ccc(CNC2=NCCCCC2)cc1 has the entry -10
# Under MgrA DNA FP, CCOC(=O)CNc1ncc(C(F)(F)F)cc1Cl has the entry -0.4

# (continued)
canonical_smiles	MgrA DNA FP	Sa helicase inh
O=C(CC1SC(=Nc2ccccc2)N(c2ccccc2)C1=O)Nc1cccc(C(=O)O)c1 (configuration not stated)	4.7	x
CCN=C1S/C(=C\c2ccc(C(=O)OC)cc2)C(=O)N1CC	x	7
c1cncc(N=c2scc(-c3cccs3)n2C2CCCC2)c1	x	-8
Cc1ccccc1CN1CCN(c2ccccn2)CC1	x	10
CCOC(=O)c1cnc(=S)[nH]c1C(F)(F)F	0.9	x
O=C(O)c1ccc(O)c(-n2c(=O)c3cc4c(=O)n(-c5cc(C(=O)O)ccc5O)c(=O)c4cc3c2=O)c1	x	-43
O=S(=O)(Cc1ccco1)Cc1nc(-c2ccccc2)cs1	1.3	x
CCOC(=O)c1ccc(N2Cc3cc(C)c(C)cc3C2)cc1O	x	-24
Fc1cccc(Cl)c1CN1CCOCC1	-0.6	x
CCNc1nc(SCC(=O)OC)nc(N(C)C)n1	-1.2	5
COc1ccc(N/C=C/C(=O)C(C)(C)C)cc1	0.6	13
O=C(NCC1CCCO1)c1ccc(CN2CCc3ccccc3C2)cc1 (configuration not stated)	-1.7	0
O=C(CSc1nnc(CNC(=O)c2ccccc2)n1-c1ccccc1)c1ccccc1	x	2
Cc1c(C(=O)NC2Cc3ccccc3C2)cnn1-c1ccc(F)cc1	-1.6	x
Cc1ccc(NCc2c(C)[nH]c3ccccc3c2=O)cc1C	x	-23
CC(C)(C)C(=O)CSc1nc(N)c(C(=O)C(C)(C)C)s1	0.5	x
CCn1nccc1C(=O)Nc1cc(Cl)ccc1Cl	0.9	2
CNc1nc(OC)nc(N2CCOCC2)n1	-1.1	-2
CC(=O)N1N=C(c2ccc(N(C)C)cc2)CC1NC(Cc1c[nH]c2ccccc12)C(=O)O (configuration not stated)	-0.5	0
Cc1ccsc1C(=O)OCC(=O)N1CCc2ccccc21	-1.6	-11
CN(C(=O)c1nc(-c2cccc(F)c2)n2c1CCCCC2)c1ccccc1	4.8	10
COc1ccc(S(=O)(=O)N2CCN(C(=O)N(C)C)C2c2ccccc2)cc1 (configuration not stated)	2.3	0
O=C(c1cc(C2CC2)on1)N1CCN(C(c2ccccc2)c2ccccc2)CC1	x	25
CCCCN(CC)S(=O)(=O)c1cccc2cccnc12	x	9
O=C(CSc1n[nH]c(=O)n1C1Cc2ccccc2C1)Nc1ccccc1	2.5	x
N#CC(C#N)=Cc1ccc(OCc2ccsc2C#N)cc1	x	-8
Cc1cc(C)cc(Nc2csc(/N=C/NO)n2)c1	-2.3	6
Cc1cc(C)nc(SCC(=O)N(c2ccccn2)c2ccccn2)n1	x	10
Clc1ccc(C=NCc2cccnc2)c(Cl)c1	-2.8	x
Cc1noc(C)c1COc1cc2ccccc2cc1C(=O)OCc1cc(=O)n2c(C)csc2n1	x	5
CC1=C/C(=N\Nc2ccccc2Cl)CC1	x	4
Cc1c(C(=O)OC2CCCCC2=O)oc2ccc(Br)cc12 (configuration not stated)	x	-3
N#CC(=C1CCCC1)c1nc2ccccc2s1	0.6	-47
Cn1c(=O)c(=O)n(C)c2cc(NC(=O)C(C)(C)C)ccc21	x	-16
O=C(CSC1=N/C(=C\c2ccc(F)cc2)C(=O)N1Cc1ccco1)N1CCCC1	x	4
CC(=O)Nc1ccc(S(=O)(=O)N(C)CC(=O)N2CCN(C(=O)c3ccco3)CC2)cc1	x	-1
CC(C(=O)NCc1cccnc1)n1cccc1C(=O)c1ccccc1 (configuration not stated)	x	-11
O=C(CSc1nnc(Cc2cc(=O)[nH]c(=O)[nH]2)n1-c1ccccc1)N1CCCC1	x	8
CC1(C)CN(c2ccc(C(F)(F)F)cc2)C1=O	0.8	x
CCOC(=O)N=c1oc2cc(Cl)c(Cl)cc2o1	x	12
Cc1ccc2c(CC(=O)NC3CCCC3)coc2c1	0.0	8
O=C(c1ccccc1)N1CCN(c2ccc(F)cc2)CC1	-2.2	8
COc1ccc(NC(=O)N(CCN(C)C)Cc2cc3cc(OC)ccc3[nH]c2=O)cc1	1.0	8
O=C(Nc1ccccc1N1CCOCC1)NC1CCN(C(=O)OCc2ccccc2)CC1	0.7	x
N#Cc1c(F)cccc1N1CCC(C#N)CC1	0.5	x
C=CCSc1nnc(-c2ccccc2)n1-c1ccccc1	2.4	0
CCCc1ccc(OCCNC(=O)c2ccc3ccccc3n2)cc1	-1.2	5
CSc1sc(/C(C)=N\O)c2c1/C(=N\O)CC(C)(C)C2	-0.1	x
O=c1oc(-c2cccs2)ns1	12	x
CC(=O)Oc1coc2ccc3c(C)cc(=O)oc3c12	-15	16
CC(C)c1ccc(NC(=O)C2CC(=O)N(C3CCCC3)C2)cc1 (configuration not stated)	-3.7	-8
Cc1ccccc1-n1c(SCc2ccc(F)cc2Cl)nnc1-c1cc2occc2n1C	x	16
CCNC(=O)COc1ccccc1Cl	-0.5	20
COC(=O)CN1C(=O)CCSc2ccccc21	x	0
CN(C)/C=C1\N=C(SCc2c(Cl)cccc2Cl)NC1=O	1.3	x
NC(=O)c1cccc2c1OCCO2	0.1	x
Cc1ccc(S(=O)(=O)N/N=C/c2ccc(Cl)cc2)cc1	-1.6	x
COc1cc(C=Nc2ccc3[nH]c(=O)[nH]c3c2)ccc1OC(C)=O	0.0	11
Cc1ccc(C(=O)C(O)c2ccc(C)cc2)cc1 (configuration not stated)	x	1
CCc1c(C)sc(NC(=S)n2cc(C)cn2)c1C(=O)OC	9.2	10

# Additional compounds
canonical_smiles	MgrA DNA FP	Sa helicase inh
Cc1ccc(NS(C)(=O)=O)cc1N=Cc1ccc(Cl)c(Cl)c1	-1.8	x
Cc1ccc(C2C3=C(CCCC3=O)OC3=C2C(=O)CCC3)o1	x	-24
O=C(CNC1Cc2ccccc2C1)Nc1ccccc1N1CCOCC1	x	-19
COc1cccc(NC(=O)c2ccc(OC(=S)N3CCC(C)CC3)cc2)c1	0.0	6
O=C(NCCN1CCOCC1)Nc1ccc(Cl)cc1Cl	1.1	3
COc1cc(=O)n(C)c2c(OC(C)=O)cccc12	x	3
O=C(Cc1c(F)cccc1Cl)Nc1cc(C(=O)N2CCCC2)ccc1N1CC2CC(C1)c1cccc(=O)n1C2 (configuration not stated)	x	-6
Cc1ccc2c(CN3CCNC(=O)C3)cc(=O)oc2c1C	x	-2

# Part of the list above, reformatted:
# Results follow in this order: MgrA DNA FP	Sa helicase inh
- Cc1ccc(NS(C)(=O)=O)cc1N=Cc1ccc(Cl)c(Cl)c1
    -1.8	x
- Cc1ccc(C2C3=C(CCCC3=O)OC3=C2C(=O)CCC3)o1
    x	-24
